# Bead autofluor – compound fluorescence in toxin protease inhibitor counterscreen; compound autofluorescence counterscreen, microsphere flow cytometry; hits give high values; fluorescence intensity (no concentration beside the values); 3.1% of 360,000 active; AID 624483;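 active = at least 3 SD above the mean of all compounds, about 16000 in these data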;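 also: 100 nL of 1 mM stock went into each well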
# PrP 5UTR inh – inhibition of PrP 5' UTR reporter expression. inhibition, % (no concentration beside the values). cell-based PrP 5' UTR mRNA reporter, plate reader. 0.35% of 340,000 active;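 active = every replicate at 50% or more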;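 also: 0 = median of the neutral control wells; tested in H4 reporter cells; numbers are from one replicate; inactives centre near -14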
# BJeLR lethal – BJeLR cell viability loss; BJeLR (HRASV12) viability, CellTiter-Glo ATP luminescence, 48 h; reference of the scale not given here; inhibition, % (no concentration beside the values); 0.17% of 300,000 active;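 active = replicate mean above 50%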;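 also: 50 nL library stock added to about 25 µL; numbers are from one replicate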
# ugtP null kill – kills S. aureus RN4220 lacking UgtP | S. aureus RN4220 ugtP deletion, OD600 growth, 16 h; some inactives read as strong as hits | growth inhibition, % (concentration not given with the values) | 0.54% of 330,000 active | AID 1259309;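 active = z-score under -3 and OD600 up to 0.15 on both plates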;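 also: plate controls were untreated wells for no effect and antibiotic for full effect; wells of about 80 µL received 100 nL stock; the first replicate is given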
# Sa RN4220 lethal – kills Staphylococcus aureus RN4220. inhibition, % (concentration not given with the values). S. aureus RN4220 growth, OD600, 16 h. 0.33% of 330,000 active;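 active = z-score of -3 or lower and OD600 up to 0.18 on both plates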;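 also: plate controls were untreated cells for no effect and reference antibiotic for full effect; stock transfer was 100 nL into about 80 µL; one replicate is shown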
# Mtb hypoxia inh – Mtb hypoxia fluorescent reporter inhibition | fluorescence inhibition, % (no concentration beside the values) | M. tuberculosis hypoxia-regulated fluorescent reporter, fluorescence | AID 1159583 | 0.1% of 300,000 active;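 active = 35 to 45% if threefold the growth effect, above 45% if 1.5-fold the growth effect; inactive = the rest, general growth blockers included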;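 also: wells of about 50 µL received 100 nL stock; 0% = vehicle wells and 100% = reference inhibitor wells; whole bacteria with a GFP reporter of the hypoxia response; strong numbers were not always called active; many hits fall short of the cut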
# Mtb hypoxia inh growth – further read-out of Mtb hypoxia inh, marked with its call; growth inhibition, %; measured here: M. tuberculosis growth (absorbance);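 0% = vehicle and 100% = reference antibiotic; read after six days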
# * = called active by the depositor; / = not tested or not shown; & = joins results of further samples.
SMILES,Bead autofluor,PrP 5UTR inh,BJeLR lethal,ugtP null kill,Sa RN4220 lethal,Mtb hypoxia inh,Mtb hypoxia inh growth
CN(Cc1nccs1)C(=O)c1ccc(OC2CCN(Cc3ccccn3)CC2)cc1,4492,-6,0,5,1.0,4,-6
CCc1nccn1CCC(=O)NC1CC(C)(C)Cc2c1cnn2-c1cccc(F)c1 (configuration not stated),5057,-20,-1,9,2.4,15,11
COc1ccc(NC(=S)N2CCN(c3ccc([N+](=O)[O-])cc3)CC2)cc1OC,3022,11,-4,-13,-0.8,-5,11
CN(C)CCCCNCCCNC(=O)C=NO,/,/,/,-2,-3.0,-4,1
C[C@H](CO)N1C[C@H](C)[C@@H](CN(C)C(=O)Nc2ccc(C(F)(F)F)cc2)Oc2c(NS(=O)(=O)c3cn(C)cn3)cccc2C1=O,2831,-10,/,-8,-20,7,1
COc1ccc(N2C(=O)CSC2c2cccc(F)c2)cc1 (configuration not stated),3668,/,1,2,3.1,5,-2
COc1cc(-c2noc(-c3ccccc3C(=O)NCc3ccco3)n2)cc(OC)c1OC,3584,5,-5,12,5.1,/,/
Cc1ccc(N2C(=O)c3ccc(C(=O)O)cc3C2=O)c(C)c1,2548,-19,-12,14,5.1,16,5
CCOC(=O)c1c(NC(=O)CSc2n[nH]c(CNc3ccccc3)n2)sc(C)c1C,5691,3,-3,-3,4.8,15,4
CCCCN(C)CCNC(=O)CCn1nc(-c2ccc(Cl)cc2)ccc1=O,3173,-16,3,13,4.2,-12,-2
COC(C/C=C/C(=O)COCc1ccccc1)OC,3453,-7,10,/,/,/,/
COc1ccc(C(CCNCc2ccc(N(C)C)cc2)c2ccccc2OC)cc1 (configuration not stated),3219,-7,17,-5,-6.8,7,3
COc1ccc(N(CC(=O)NC2CC3CCC2C3)S(=O)(=O)c2ccc(C)c([N+](=O)[O-])c2)cc1 (configuration not stated),6446,-13,7,0,0.2,-3,-6
Cc1cccc(NC(=S)NCCc2ccccn2)c1,5997,-25,-5,-1,6.4,-8,4
Cc1ccc2nc(-c3ccc(O)cc3)oc2c1,3384,-47,-3,/,/,/,/
Cn1cncc1C#Cc1ccc2cc(CCCO)oc(=O)c2c1,2839,-23,/,5,8.5,9,12
CCCc1cc(=O)oc2cc3oc(C)c(C)c3cc12,9739,-14,-4,-3,5.7,7,6
Cc1ccc(C(=O)Nc2scc(-c3ccccc3)c2C(=O)O)cc1,3585,-20,-10,-9,11,5,2
CC1CCCN(c2ccc(C(=O)Nc3nnc(C4CC4)s3)cc2[N+](=O)[O-])C1 (configuration not stated),2536,0,7,0,5.6,-12,12
O=C(Nc1cnccn1)Nc1ccccc1Cl,2363,-12,5,3,-0.4,-16,0
Cc1ccc(C(=O)Nc2ccc(S(=O)(=O)N3CCCC3)cc2)cc1,3651,-19,-5,-1,-3.2,-11,7
O=C(O)Cc1sc(Nc2ccccc2)nc1-c1ccc(Cl)cc1,5216,57*,9,0,-4.2,-10,7
CC(NC(=O)C(C(=O)c1cccc([N+](=O)[O-])c1)n1cc(Cl)ccc1=O)c1ccccc1 (configuration not stated),2081,-9,1,6,5.9,-8,-2
Cc1ccc(S(=O)(=O)NCCC(=O)N2CCCC(C)C2)cc1 (configuration not stated),5978,-86,-14,0,1.7,8,5
CN(CC(O)CN)CC(O)CN1CCCCC1 (configuration not stated),6134,-17,-1,-1,1.4,1,11
Cc1cc(C)cc(C(=O)/C=C2\NC(=O)CS2)c1,2360,-16,-7,/,/,/,/
Cc1cccc(CSC2=NN3CCCC(=O)N=C3S2)c1,6923,-24,2,1,-5.4,11,12
COc1ccccc1NC(=O)[C@H](COCc1ccccc1)NC(=O)OC(C)(C)C,4353,2,-6,0,-0.8,-6,8
COc1ccc(OC)c(NC(=O)CSc2nnc(N)s2)c1,8435,-40,-5,3,3.8,8,11
CN(C)CCCCOc1ccccc1F,4244,-1,/,3,1.0,10,11
CCOC(=O)N1CCN(Cc2cn[nH]c2-c2ccc(-c3ccccc3)cc2)CC1,2568,-13,-4,1,-1.2,2,3
CCOC(=O)C1=C(O)C(=O)N(CCCn2ccnc2)C1c1ccc(OC)cc1 (configuration not stated),/,/,-1,6,7.1,15,3
CCCCn1c(N)c(N(CC(C)C)C(=O)C(C)SCc2nc3sc(C)c(C)c3c(=O)[nH]2)c(=O)[nH]c1=O (configuration not stated),4988,-23,-3,3,0.7,6,1
Cc1ccc(Cc2nnc(SCC(=O)Nc3c(C)cccc3C)[nH]c2=O)cc1,6543,2,6,6,3.0,0,1
Nc1nc(-c2ccccc2)nn1S(=O)(=O)c1ccccc1,3197,5,2,6,5.4,10,12
COC(=O)C1CC2CCC(O)CC2N1Cc1ccccc1OC(=O)c1cccs1 (configuration not stated),/,/,/,0,2.4,2,10
CC1(c2nnc(Cc3ccccc3)o2)CC(c2ccccc2Br)=NO1 (configuration not stated),2950,-4,-2,4,7.6,9,8
Cc1cc(C(=O)c2ccc(Cl)cc2)c(NC(=O)CCl)s1,2498,-62,-2,8,0.3,18,14
O=C(/C=C/c1c(F)cccc1Cl)Nc1cccnc1,4188,-72,-5,5,3.8,12,7
C=CCN=c1scc(-c2ccc(F)cc2)n1/N=C/c1ccccn1,2509,-43,12,/,/,/,/

# Fetched by structure from above, six records:
SMILES,Bead autofluor,PrP 5UTR inh,BJeLR lethal,ugtP null kill,Sa RN4220 lethal,Mtb hypoxia inh,Mtb hypoxia inh growth
Cc1ccc(S(=O)(=O)NCCC(=O)N2CCCC(C)C2)cc1 (configuration not stated),5978,-86,-14,0,1.7,8,5
O=C(O)Cc1sc(Nc2ccccc2)nc1-c1ccc(Cl)cc1,5216,57*,9,0,-4.2,-10,7
Cc1cccc(CSC2=NN3CCCC(=O)N=C3S2)c1,6923,-24,2,1,-5.4,11,12
O=C(/C=C/c1c(F)cccc1Cl)Nc1cccnc1,4188,-72,-5,5,3.8,12,7
Nc1nc(-c2ccccc2)nn1S(=O)(=O)c1ccccc1,3197,5,2,6,5.4,10,12
Cc1ccc(C(=O)Nc2ccc(S(=O)(=O)N3CCCC3)cc2)cc1,3651,-19,-5,-1,-3.2,-11,7

# More structures:
SMILES,Bead autofluor,PrP 5UTR inh,BJeLR lethal,ugtP null kill,Sa RN4220 lethal,Mtb hypoxia inh,Mtb hypoxia inh growth
CN(CC(O)CN1CCOCC1)S(=O)(=O)O (configuration not stated),4557&4086,-19&-33,-9&0,-2&8,5.0&1.6,7&-5,14&2
CC(CC(=O)Nc1ccc2c(c1)OCCO2)=NNC(=O)COc1ccc(Cl)c(C)c1,/,/,/,3,4.0,5,2
COc1ccc(NC(=O)CN(c2ccc([N+](=O)[O-])cc2)S(=O)(=O)c2ccccc2)c(OC)c1,7591,-22,-7,19,2.8,9,2
O=C(ON=C1CCCc2occc21)c1ccc(Cl)cc1Cl,/,/,/,1,2.7,8,2
CCc1sc(C(=O)Nc2ccc(F)cc2C)cc1C,2078,-32,7,5,5.7,4,10
COc1ccc(Cc2nnc(NC(=O)Nc3cccc(OC)c3)s2)cc1,3020,-26,0,9,4.9,10,4
CCCc1nc(SCC(N)=O)[nH]c(=O)c1CC,22995*,-7,-7,1,2.6,8,6
CN1C(C(=O)NCc2ccc(OC(F)(F)F)cc2)CC2Cn3c(nc4cc5ccccc5cc43)C21 (configuration not stated),3831,-14,3,7,3.0,-1,8
Cc1ccc(NC(=O)COc2ccccc2C=O)cc1Cl,3567,-107,2,0,19,6,12
Cc1ccc(Nc2nnc(SCC(=O)NCCN3C(=O)CSC3=O)s2)cc1,2318,-33,-6,-2,5.7,1,13
Cc1ccc(N(C(=O)c2csnn2)C(C(=O)NC2CCCCC2)c2cccnc2)c(C)c1 (configuration not stated),3003,-30,0,9,3.7,-14,0
N#C/C(=C(/O)CSc1n[nH]c(N)n1)c1nc2ccccc2[nH]1,3644,1,1,0,3.7,15,12
CC1=C(C(=O)OCc2ccc3c(c2)OCO3)C(c2ccc(O)c([N+](=O)[O-])c2)NC(=O)N1 (configuration not stated),2677,7,5,7,6.1,10,1
CCCCNc1c2c(nc3c(-c4ccccc4)c(C)nn13)CCC2,20079*,-30,2,-1,-7.4,-7,-5
O=C(NCc1cccnc1)c1noc2c1CCCC2,21847*,-8,-2,3,2.7,1,4
Cc1cc(N2CCOCC2)nc(N)n1,3998,-18,24,4,7.4,5,-1
COC(=O)c1ccccc1OCCOCCOc1cccc2cccnc12,2176,-22,4,0,3.2,-1,2
CCC(C)(C)NC(=O)c1cc([N+](=O)[O-])ccc1N1CCOCC1,10020,-22,-9,5,0.7,11,1
Cc1ccccc1NC(=O)Nc1cc(S(N)(=O)=O)ccc1C,8027,-1,1,3,4.5,17,3
CC(=NNC(=O)c1cccc(S(=O)(=O)N2CCCC2)c1)c1ccc(F)cc1,/,/,/,-1,0.2,1,0

# 2 successive compounds from above:
SMILES,Bead autofluor,PrP 5UTR inh,BJeLR lethal,ugtP null kill,Sa RN4220 lethal,Mtb hypoxia inh,Mtb hypoxia inh growth
CCc1sc(C(=O)Nc2ccc(F)cc2C)cc1C,2078,-32,7,5,5.7,4,10
COc1ccc(Cc2nnc(NC(=O)Nc3cccc(OC)c3)s2)cc1,3020,-26,0,9,4.9,10,4

# (further entries)
SMILES,Bead autofluor,PrP 5UTR inh,BJeLR lethal,ugtP null kill,Sa RN4220 lethal,Mtb hypoxia inh,Mtb hypoxia inh growth
COc1ccc(CCCNC(=O)C2CCC(=O)N(CCCN3CCCC3=O)C2)cc1 (configuration not stated),5242,-13,1,6,3.7,9,2
Cc1cccc(OCC(=O)Nc2nnc(S(=O)(=O)N3CCC(C)CC3)s2)c1,5813,-20,8,-6,-7.5,-2,14
CCC1CCCCN1C(=O)CCNC(=O)Cn1cnc2ccccc2c1=O (configuration not stated),6200,-23,5,5,5.4,13,6
COCCCNC(=O)Cn1nnc(-c2ccc(NC(=O)c3ccc(F)cc3)cc2)n1,8342,-15,-2,1,-2.4,-6,-3
Cc1ccc(NC(=O)NCCCl)cc1S(=O)(=O)N1CCOCC1,/,-42,-8,3,1.9,1,6
Cc1nc2cc(S(=O)(=O)C(F)(F)F)ccc2s1,3691,-20,-14,0,0.6,-2,-1
Cc1nc(-c2nc(-c3c(C(=O)NNC(=O)Nc4ccccc4)noc3C)cs2)cs1,3962,-18,-2,2,7.0,-2,-3
CCc1nc(N[C@H](C(=O)O)C(C)CC)c2oc3ccccc3c2n1 (some centres not stated),3451,-13,-3,/,/,/,/
Cc1nc(NC(=O)c2ccc(Br)s2)sc1C(=O)N(C)C,16535*,-49,-18,3,0.7,8,10
COc1cc(C(=O)OCC(=O)NCCC2=CCCCC2)ccc1OCC(C)C,/,-1,-1,3,-0.8,2,3
N#Cc1ccc(CN2CCN(C(=O)c3cccc(S(=O)(=O)N4CCCCCC4)c3)CC2)cc1,6324,-4,/,-7,-1.7,-7,3
COc1cc(C(=O)NNC(=O)c2ccc(S(=O)(=O)N3CCCCC3)cc2)cc(OC)c1OC,9317,-28,-10,-7,-2.0,3,9
Cc1ccc(CC(=O)O/N=C(\N)c2ccccn2)cc1,5243,-74,2,7,4.8,14,4
CC(=O)NC1CC2CCCC(C1)N2Cc1ccc(C)cc1 (configuration not stated),3908,-21,-2,15,3.5,4,6
c1ccc(-c2[nH]ncc2CN2CCN(Cc3ccc4c(c3)OCO4)CC2)cc1,4189,-11,4,-3,1.7,-8,-1
Cc1ccc(S(=O)(=O)N2CCN(C(=O)COC(=O)/C=C/c3ccccc3F)CC2)c(C)c1,5666,-18,/,4,0.5,-2,5
CC=CC(=O)Nc1cccc(C2=NOC3(C2)CC(C(N)=O)N(C(=O)C2CCC(=O)N2)C3)c1 (configuration not stated),/,/,/,3,5.5,5,13
COc1ccc(N2CCN(C(=O)c3ccc(Oc4ccc(C(F)(F)F)cn4)cc3)CC2)cc1,9873,-11,8,1,-1.7,5,14
COc1ccc(-n2cc(CN3CCCC3)c(-c3cccc(F)c3)n2)cc1,3844,-11,18,-4,5.6,4,-1
O=C(NC(Cc1ccccc1)C(=O)O)c1ccc(S(=O)(=O)N2CCOCC2)cc1 (configuration not stated),19429*,-8,-2,0,1.4,4,2
COc1ccc(CNc2ncnc3sccc23)cc1,5528,0,7,-9,3.8,1,-5
